From PubChem
TRPML1 agonist = qHTS for Agonists of the Human Mucolipin Transient Receptor Potential 1 (TRPML1). Mucolipin-1 (Homo sapiens), Q9GZU1. TRPML1-expressing cells, Ca2+ dye fluorescence, FDSS; host cell line not named in the record; reference of the full effect not given here. activation, % (no concentration beside the values). hit rate 0.12% among 410,000. AID 624414, 2012; in the data active = activation above about 50%; inconclusive = about 30% to 50%; inactive = below about 30%; further: 0% is about no effect; the text of the record puts the active cut at 80%
Target sequence (Q9GZU1 whole entry, looked up): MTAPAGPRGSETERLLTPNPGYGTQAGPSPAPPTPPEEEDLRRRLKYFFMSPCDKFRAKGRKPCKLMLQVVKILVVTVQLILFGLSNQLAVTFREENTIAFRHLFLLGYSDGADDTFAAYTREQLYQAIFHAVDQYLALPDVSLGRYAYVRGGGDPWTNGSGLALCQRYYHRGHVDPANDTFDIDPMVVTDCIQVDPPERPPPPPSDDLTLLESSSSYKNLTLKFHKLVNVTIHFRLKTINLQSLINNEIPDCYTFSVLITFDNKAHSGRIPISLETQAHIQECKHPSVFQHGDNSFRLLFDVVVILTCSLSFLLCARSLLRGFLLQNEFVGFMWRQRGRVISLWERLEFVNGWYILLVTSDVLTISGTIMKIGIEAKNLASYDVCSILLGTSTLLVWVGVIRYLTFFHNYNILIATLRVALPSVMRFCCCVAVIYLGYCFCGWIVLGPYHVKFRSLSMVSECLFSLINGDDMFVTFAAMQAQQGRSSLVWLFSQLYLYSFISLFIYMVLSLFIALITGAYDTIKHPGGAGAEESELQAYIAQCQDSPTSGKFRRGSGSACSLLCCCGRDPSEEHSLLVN
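Cells: TRPML1-DL, 1X Tet inducer, ~16 h at 37 degrees C/5% CO2. Dye: ABD Ca8 no-wash + quencher, 45-90 min RT. Read: 10 s baseline, compound add, 110 s agonist phase; 54-4 EC80 (4uM final), 110 s antagonist phase.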
Menin MLL FP FL = qHTS Assay for Inhibitors Targeting the Menin-MLL Interaction in MLL Related Leukemias: Competition With Fluorescein Labeled MLL-derived Peptide. Fluorescence polarization, fluorescein-MLL peptide displacement from menin. FP activity change, % at 61.4 µM. 290,000 tested, under 10 active. AID 1766, 2009; inconclusive = falling polarisation curve, or a change in total fluorescence; inactive = total fluorescence flat and polarisation flat or rising; no compound was filed as active; the % refers to the polarisation; negative = inhibition;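 further: % of control where 0% means no effect; inhibitors lower the polarisation; unlabelled MLL peptide was the positive control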
TRPML1 blocker = qHTS for Inhibitors of the Human Mucolipin Transient Receptor Potential 1 (TRPML1) | activity change, negative = inhibition, % (concentration not given with the values) | hit rate 0.02% among 390,000 | TRPML1-inducible cells, Ca2+ dye fluorescence, FDSS; active compounds read low; inhibition of EC80 agonist-evoked calcium signal; in the data active means activity change below about -50%; inconclusive means about -30% to -50%; inactive means above about -30%;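 further: stimulus is agonist 54-4 at its EC80 concentration; on the % scale 0 is the no-effect control and ±100 the full control effect; the text of the record puts the active cut at -80%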
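Calcium fluorescence in TRPML1-DL cells induced overnight with Tet: a 110 s read after compound pin addition, then a 110 s antagonist read after challenge with 54-4 at 4 uM final (EC80).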
TRPV1 PAM = HTS Assay for Compounds that Act as Potentiators of the Vanilloid Receptor 1; TRPV1-expressing cells, Fluo-8 calcium influx, capsaicin EC20 potentiation; host cell line not named in the record; control for the full effect not named in the record; potentiation, % at 8.33 µM; hit rate 0.02% among 320,000; AID 540277, 2011; active means potentiation above 80%; inconclusive means 30% to 80%; inactive means below 30%; further: 0% is about no effect
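TRPV1-expressing cells were cultured overnight at 35.5C and loaded with Fluo-8 calcium dye for 40 to 90 min at room temperature. After a 10 s baseline, compound was added and calcium influx was read kinetically for 3 min (ex 480/em 520 nm).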
Sfp PPTase inh = qHTS Assay for Inhibitors of Bacillus subtilis Sfp phosphopantetheinyl transferase (PPTase). Biochemical Sfp PPTase activity, qHTS. hit rate 3.5% among 310,000. AID 1490, 2009. 4'-phosphopantetheinyl transferase ffp (Bacillus subtilis), Q9F4F7. Potency, µM, for inactives: max response, negative = inhibition, hits mostly inhibitors; active means well fitted inhibition curve with a large enough effect; inconclusive means small, poorly fitted or top-dose-only effect, or another doubt; inactive means no such curve, though single readings can be large or run the other way;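 further: the enzyme is Sfp with the accession as filed and its product quenches rhodamine fluorescence; potency means the concentration at half of the fitted maximal effect; 0% = enzyme reaction without inhibitor and -100% = no enzyme wells; top concentration of the series not given in the record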
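After 15 min at room temperature with compound, 15 nM Sfp received 5 uM rhodamine-CoA plus 12.5 uM BHQ-2-ybbR (50 mM Hepes pH 7.6, 10 mM MgCl2). Rate came from the fluorescence difference over 30 min, ex 525/em 598 nm.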
ClpP mod = qHTS Assay for Activators of ClpP; Potency, µM (doses to about 57.5 µM), inactives show at the highest dose activity change, negative = active; hit rate 1.9% among 340,000; purified B. subtilis ClpP, FRET peptide cleavage, 20 min; AID 651965, 2013; active = well fitted falling curve with a large enough effect; inconclusive = small, poorly fitted or top-dose-only effect; inactive = no such curve, though single readings can be large or run the other way; further: potency means the concentration at half of the fitted maximal effect; the source files actives as falling curves though it sought activators and does not explain the sign; nearly all actives have a fitted effect of over 65% in size; many hits overshoot -100%
Target sequence (P80244 whole entry, looked up): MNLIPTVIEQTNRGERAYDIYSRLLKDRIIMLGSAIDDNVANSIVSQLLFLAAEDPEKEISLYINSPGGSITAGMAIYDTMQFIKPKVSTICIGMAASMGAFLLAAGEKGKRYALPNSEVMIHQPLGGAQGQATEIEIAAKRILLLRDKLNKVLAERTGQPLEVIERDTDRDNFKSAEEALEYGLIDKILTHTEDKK
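ClpP 10 microg/mL final, pH 8 Tris/KCl buffer with BSA, glycerol, Tween-20; compound pinned in; FRET-FV substrate; RT 20 min; Ex320/Em430; ΔFRET vs ADEP 5.8 microM, DMSO, no enzyme.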
PINK1 expr mod = A Quantitative High throughput Screen to Identify Chemical Modulators of PINK1 Expression; PINK1 immunofluorescence, high-content cytometry, 24 h; Potency, µM (series often up to 76.6 µM), inactives show top-dose activation (PINK1 increase), usual class: activators; hit rate 0.2% among 410,000; active = well fitted activation curve with a large enough effect; inconclusive = small, poorly fitted or top-dose-only effect; inactive = flat fitted curve, though single readings scatter; cell line not stated here;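 further: potency means the concentration at half of the fitted maximal effect; % of control where 0% means no effect; nearly all actives have a fitted effect of over 65% in size; a mitochondrial uncoupler was the plate control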
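PINK1 protein level read as immunofluorescence by microplate cytometer in a fixed, stained stable cell line after 24 h exposure to five compound concentrations, with CCCP as control.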
* marks the source's active call; other numbers are inactive results; u = inconclusive; x = not tested or not shown.

The line under a structure holds: Menin MLL FP FL	TRPML1 agonist	Sfp PPTase inh	TRPV1 PAM	ClpP mod	TRPML1 blocker	PINK1 expr mod
- COc1ccc(OC)c(/C=N/NC(=O)CCc2ccc(O)c(O)c2)c1
 : u	1.4	u	-7	8.9µM*	-4	2.0%
- CN1C(=O)c2cccc3c(S(=O)(=O)NCCc4ccccc4)ccc1c23
 : -7.0	-0.3	-2%	3	x	9	1.8%
- CC12CC3CC1C(C(=O)O2)C3C(=O)O (stereo not drawn)
 : x	0.9	x	x	-3.3%	12	-2.9%
- OCC(O)C[n+]1cccc(Br)c1 (stereo not drawn)
 : x	0.2	x	x	0.0%	x	0.1%
- CCc1cccc(NC(=O)Cn2ncc3c([nH]c4ccc(C)cc43)c2=O)c1
 : x	3.8	x	x	1.5%	11	2.9%
- Cc1c(C(=O)Nc2ccccc2)sc2nc(-c3ccccc3)cn12
 : 6.1	0.2	11%	4	-1.4%	39	-1.0%
- Cc1ccc(Cn2ccnc2SCC(=O)Nc2ccccc2C(F)(F)F)cc1
 : x	1.5	x	x	0.3%	24	-2.4%
- O=C(N1CCOCC1)N(CCN1CCOCC1)Cc1cccc2ccccc12
 : 1.1	-0.7	1%	4	-2.5%	-16	2.3%
- CN(C(=O)CSc1nccc(=O)[nH]1)C1CCCCC1
 : x	0.2	x	x	-2.6%	-14	-0.1%
- CC1Cc2nc(SCC(=O)NCC3CCCO3)n(C)c(=O)c2S1 (stereo not drawn)
 : -2.5	0.9	-18%	u	-3.4%	5	0.8%
- COc1ccccc1N1CCN(C(c2ccc(N(C)C)cc2)c2nnnn2CCc2ccccc2)CC1 (stereo not drawn)
 : 6.8	6.2	-11%	3	-1.2%	4	1.1%
- CCC12CN(C(=O)c3ccc(OC)cc3)CC(CC)(CN(C(=O)c3ccc(OC)cc3)C1)C2=O
 : 5.0	-0.4	13%	5	0.8%	0	1.1%
- CCCCc1cc(=O)oc2cc(C)cc(OCC(=O)NCc3ccncc3)c12
 : 3.9	-0.9	12%	-15	3.3%	11	3.0%
- Cc1c(NC(=O)C(C)OC(=O)c2cccc(S(=O)(=O)N3CCOCC3)c2)c(=O)n(-c2ccccc2)n1C (stereo not drawn)
 : 4.6	-0.7	10%	-4	-0.7%	-5	-0.7%
- CCOc1ccc(NC(=S)N(CCc2c(C)[nH]c3ccc(C)cc23)Cc2cccnc2)cc1
 : 9.6	-0.3	7%	1	-2.0%	-13	0.2%

Single records (already shown). Values in the order: Menin MLL FP FL | TRPML1 agonist | Sfp PPTase inh | TRPV1 PAM | ClpP mod | TRPML1 blocker | PINK1 expr mod
CCC12CN(C(=O)c3ccc(OC)cc3)CC(CC)(CN(C(=O)c3ccc(OC)cc3)C1)C2=O reads 5.0 | -0.4 | 13% | 5 | 0.8% | 0 | 1.1%
CN1C(=O)c2cccc3c(S(=O)(=O)NCCc4ccccc4)ccc1c23 reads -7.0 | -0.3 | -2% | 3 | x | 9 | 1.8%
Cc1c(NC(=O)C(C)OC(=O)c2cccc(S(=O)(=O)N3CCOCC3)c2)c(=O)n(-c2ccccc2)n1C (stereo not drawn) reads 4.6 | -0.7 | 10% | -4 | -0.7% | -5 | -0.7%

Following part
The line under a structure holds: Menin MLL FP FL	TRPML1 agonist	Sfp PPTase inh	TRPV1 PAM	ClpP mod	TRPML1 blocker	PINK1 expr mod
- C=CCn1c(SCc2cc(=O)n3ccsc3n2)nc2ccccc2c1=O
 : 0.2	1.8	1%	11	-5.6%	27	2.3%
- Cc1cc(C(=O)OCC(=O)NCCN2C(=O)CSC2=O)ccc1[N+](=O)[O-]
 : x	-0.5	x	x	-0.2%	0	-0.2%
- Cc1ccc(OCCNC(=O)/C=C/c2ccccc2)cc1C
 : 3.4	0.6	-4%	-3	1.8%	9	-1.6%
- COc1ccc(C(=O)C[n+]2cccc3cc(OC)ccc32)cc1
 : -1.6	4.1	-9%	29	-2.7%	12	-0.5%
- COc1ccc(OC)c(NC(=O)c2ccc3c(c2)C(=O)N(c2ccc(OC(C)=O)cc2)C3=O)c1
 : -12	1.5	3%	-23	-0.6%	1	1.5%
- CC1Cc2cc(/C(O)=C3/C(=O)C(=O)N(CCCN(C)C)C3c3ccncc3)ccc2O1 (stereo not drawn)
 : -0.3	-0.8	18%	6	-1.0%	4	5.6%
- Cc1nc(-c2ccc(Cl)cc2)sc1CCNC(=O)c1ccc(C(F)(F)F)cc1
 : x	-0.4	x	x	-41%	5	0.6%
- Cc1ccc(NC(=O)C(C)OC(=O)Cc2c[nH]c3ccccc23)cc1S(=O)(=O)N1CCOCC1 (stereo not drawn)
 : x	1.1	x	-3	0.3%	4	8.2%
- CSc1nc2nc3c(c(=O)n2[nH]1)CCCC3
 : 0.0	-0.6	6%	4	-0.5%	13	1.0%
- Cc1cc(=O)oc2cc(OCC(=O)Nc3c(C)n(C)n(-c4ccccc4)c3=O)c(Cl)cc12
 : x	0.1	x	-7	32µM*	-5	0.4%
- O=C(Nc1ccccc1)Nc1nnc(SCC(=O)N2CCCCC2)s1
 : x	-0.1	x	x	0.0%	-16	1.8%
- Cc1cccc(C)c1NC(=S)Nc1c(C)n(C)n(-c2ccccc2)c1=O
 : 7.7	-1.1	7%	0	-3.2%	-9	-0.8%
- COc1cc(NC(=O)COc2ccc(-n3cnnn3)cc2)cc(OC)c1OC
 : x	0.0	x	x	-1.9%	3	2.7%
- COc1ccc(C2C(C(=O)c3ccccc3)=C(C)Nc3nc4ccccc4n32)c(OC)c1 (stereo not drawn)
 : 3.6	-1.3	15%	7	0.6%	-5	8.5%
- CCOC(=O)c1sc(SC)nc1N
 : 0.3	1.6	14%	3	x	34	-2.0%
- CC(=O)c1cccc(NC(=O)N2CCCC2C(=O)NC2CCCCC2)c1 (stereo not drawn)
 : 1.5	-0.3	13%	-6	-3.1%	-4	-1.3%
- CCOC(=O)c1cc2sc(C)cc2n1CCCN1C(=O)c2ccccc2C1=O
 : -0.2	0.2	-2%	19	0.3%	9	2.0%
- COC(=O)c1ccccc1NC(=O)COC(=O)Cc1ccc(S(=O)(=O)N2CCOCC2)s1
 : x	0.3	x	x	13%	-9	1.9%
- CC(C)Cn1c(SCC(=O)N(C)c2c(N)n(Cc3ccccc3)c(=O)[nH]c2=O)nc2ccccc21
 : x	-0.4	x	5	-1.9%	19	4.5%
- CC(C)c1ccc(/C=N/NC(=O)C2CCCC2)cc1
 : 1.1	1.0	8%	-8	0.4%	20	1.9%
- CCOC(=O)c1ccc2c(c1)N(CC(=O)N1CCCCC1)C(=O)C(C)(C)O2
 : 1.4	-1.0	15%	-19	-3.5%	26	-2.9%
- O=C(CSc1nnc(COc2ccc(Cl)cc2)o1)NC1CC2CCC1C2 (stereo not drawn)
 : 2.2	-0.6	4%	-6	0.3%	2	3.8%
- CCOC(=O)c1c(NC(=O)C2C3CCC(O3)C2C(=O)O)sc2c1CCCC2 (stereo not drawn)
 : 4.0	-0.7	2%	11	x	-11	0.0%
- Cc1cc(O)c(C2=Nc3ccccc3SC(c3ccc(Cl)cc3)C2)c(=O)o1 (stereo not drawn)
 : 9.3	2.1	14µM*	8	0.5%	6	5.7%
- CCCCN(C)CCCNC(=O)C1CCC(CNS(=O)(=O)c2c(C)cc(C)cc2C)CC1 (stereo not drawn)
 : 0.1	1.0	9%	1	0.9%	-27	0.2%
- Cc1ccc(NC(=O)CSc2sc3c(O)cc(=O)[nH]c3c2C#N)cc1C
 : 17	-0.3	u	u	x	4	-1.9%
- O=C(N/N=C/C1=C(N2CCOCC2)C(=C\c2ccccc2)/CC1)Nc1ccccc1
 : 8.8	2.1	1%	14	1.7%	52	6.4%
- CC(C)NC(=O)CCS(=O)(=O)c1cccc2nonc12
 : -0.6	-0.4	16%	14	-0.9%	0	1.8%
- O=C(Nc1ccc(Cl)cc1C(=O)NCc1cccnc1)c1ccc(Cl)cc1Cl
 : 4.5	3.9	u	20	-2.3%	35	3.6%
- Cc1cc2oc(C(=O)Nc3ccc(S(=O)(=O)N4CCCCCC4)cc3)cc(=O)c2cc1C
 : x	0.4	x	x	-2.6%	-20	-2.4%
- CCOc1ccc2c3c(c(=O)oc2c1OCC)CCCC3
 : 2.2	1.9	17%	4	u	-3	-1.8%
- COc1ccc(C)cc1Nc1c2c(nc3nc(-c4cccs4)nn13)CCCC2
 : x	0.6	x	x	-14%	16	3.8%
- Cc1nn(CC(=O)NCc2ccc(F)cc2)c2ccccc12
 : x	-0.9	x	x	-3.9%	-10	0.3%
- O=S(=O)(c1cccc(C(F)(F)F)c1)n1c(/C=C/c2ccccc2)nc2ccccc21
 : x	2.1	x	x	4.8%	14	-0.8%
- COc1ccc(NC(=O)CSc2ccc(NC(C)=O)cc2)cc1S(=O)(=O)N1CCOCC1
 : x	1.6	x	x	x	-22	-0.8%
- O=C(NCCc1ccccc1)c1ccc2c(c1)N(Cc1ccccc1)C(=O)CS2=O (stereo not drawn)
 : 1.8	0.5	13%	-7	0.2%	-1	0.4%
- CC(=O)Nc1nc(SCC(=O)Nc2nnc(C)s2)[nH]c(=O)c1NC(=O)c1cccs1
 : -0.6	-0.4	0%	4	x	4	19%
- COc1cccc(/C=N/n2nnnc2N)c1O
 : u	0.2	2%	2	x	-23	1.5%
- CC1(C)CC(=O)c2cc(C(=O)Nn3cnnc3)c(=O)n(-c3ccccc3)c2C1
 : -0.3	0.7	9%	6	u	8	-1.3%
- COC(=O)Cn1c2ccc(Cl)cc2c2nc(C)sc21
 : 0.7	1.8	-1%	x	x	14	0.1%
- CCC(C)c1ccccc1OCCn1c(CCNC(=O)C2CCCCC2)nc2ccccc21 (stereo not drawn)
 : x	0.5	x	x	-1.0%	x	-0.6%
- CCOC(=O)c1cc(-c2ccccc2)nn1CCC#N
 : -2.8	0.8	7%	-9	-1.1%	12	2.0%
- COc1cc(C(=O)N2CCN(S(=O)(=O)c3ccc(C)cc3)CC2)ccc1OCC(=O)N1CCOCC1
 : x	-0.9	x	x	-0.5%	11	-0.2%
- O=C(CC(CC(=O)c1ccccc1)c1ccncc1)c1ccccc1
 : x	0.5	x	x	x	-4	0.5%
- Cc1c(Cl)cnc(NC(=O)COC(=O)/C=C/c2ccco2)c1Cl
 : x	-0.4	x	4	-7.6%	2	0.5%
